Lassa entry inh: qHTS for Inhibitors of binding or entry into cells for Lassa Virus | Potency, µM (highest dose often 37.9 µM), for inactives: at the highest dose activity change, negative = inhibition, usual class: inhibitors | Lassa virus pseudotype entry inhibition, cell reporter; control for the full effect not named in the record | 300,000 tested, 1.2% active; active means well fitted inhibition curve with a large enough effect; inconclusive means small, poorly fitted or top-dose-only effect, or effect the other way; inactive means flat fitted curve, though single readings scatter; tested in HEK293 cells; also: % is scaled to controls: 0 for no effect and ±100 for the full control effect; nearly all actives have a fitted effect of over 50% in size; luciferase read-out
MARV entry inh: qHTS for inhibitors of binding or entry into cells for Marburg Virus; Marburg virus pseudotyped entry inhibition, cell reporter; control for the full effect not named in the record; about a third of the inactives were read at about 46 µM; Potency, µM (titrated, usually from 37.8 µM), without a hit: top-dose activity change, negative = inhibition, usual class: inhibitors; 300,000 tested, 1.8% active; active = well fitted inhibition curve with a large enough effect; inconclusive = small, poorly fitted or top-dose-only effect, or effect the other way; inactive = flat fitted curve, though single readings scatter; tested in HEK293 cells; about a fifth of its hits are not listed in these tables; also: % is scaled to controls: 0 for no effect and ±100 for the full control effect; luciferase read-out
SARS PLP yeast: qHTS of Yeast-based Assay for SARS-CoV PLP. S. cerevisiae expressing SARS-CoV PLpro, growth rescue; control for the full effect not named in the record. Potency, µM (titrated, usually from 32.9 µM), without a hit: at the highest dose activity, positive = growth rescue. 330,000 tested, 0.19% active; also: 0% is about no effect; nearly all actives have a fitted effect of over 55% in size; growth read by luminescence after 48 h
Cruzain inh noDet: qHTS Assay for Promiscuous and Specific Inhibitors of Cruzain (without detergent) | purified cruzain, Z-FR-AMC fluorescence, no detergent | 200,000 tested, 2.3% active | Cruzipain (Trypanosoma cruzi), P25779 | AID 1476, 2009 | Potency, µM, for inactives: max response, negative = inhibition, hits mostly inhibitors; active = well fitted curve in the direction sought with a large enough effect; inconclusive = small, poorly fitted or top-dose-only effect, or another doubt; inactive = no such curve, though single readings can be large; an effect the other way counts as inactive or inconclusive;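 also: plate controls were enzyme without inhibitor for no effect and buffer without enzyme for full effect; nearly all actives have a fitted effect of over 40% in size; top concentration of the series not given in the record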
Target sequence (P25779 123-467 limits assumed): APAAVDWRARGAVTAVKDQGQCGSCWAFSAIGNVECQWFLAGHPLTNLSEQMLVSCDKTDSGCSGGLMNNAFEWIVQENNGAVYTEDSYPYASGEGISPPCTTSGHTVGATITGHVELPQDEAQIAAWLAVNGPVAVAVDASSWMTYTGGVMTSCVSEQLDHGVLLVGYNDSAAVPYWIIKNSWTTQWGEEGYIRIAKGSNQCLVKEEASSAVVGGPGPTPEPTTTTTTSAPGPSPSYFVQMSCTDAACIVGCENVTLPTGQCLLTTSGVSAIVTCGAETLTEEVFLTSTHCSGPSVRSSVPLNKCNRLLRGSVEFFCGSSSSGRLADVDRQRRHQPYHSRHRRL
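Detergent-free condition (0.00005% Triton X-100) in acetate buffer pH 5.5 with DTT. 1.5 nM enzyme and compound were pre-mixed 15 min, then 2 uM Z-FR-AMC substrate added; reaction progress from fluorescence change between first and third reads (60 s).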
RE007 growth inh: qHTS Assay for Inhibitors of the HIV-1 protein Vpr; AID 651644, 2012; Potency, µM (titrated, usually from 92.2 µM), for inactives: at the top dose activity change, negative = less growth; 360,000 tested, 0.21% active; S. pombe RE007 Vpr strain, BacTiter-Glo ATP luminescence, 24 h; control for the full effect not named in the record; active = well fitted falling curve with a large enough effect; inconclusive = small, poorly fitted or top-dose-only effect; inactive = no such curve, though single readings can be large or run the other way;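 also: % is scaled to controls: 0 for no effect and ±100 for the full control effect; nearly all actives have a fitted effect of over 50% in size; the assay follows cell death caused by Vpr and the record does not say whether a fall means rescue or toxicity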
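Fission yeast RE007 carrying one integrated HIV-1 vpr copy, seeded at OD 0.01 in PMG+AL medium with 23 nL pinned compound. Grown 24 h at 30 degrees; viability read by BacTiter-Glo luminescence after 5 min.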
Cruzain Triton: qHTS Assay for Promiscuous and Specific Inhibitors of Cruzain (with detergent) | Cruzipain (Trypanosoma cruzi), P25779 | Potency, µM, for inactives: max response, negative = inhibition, most hits filed as inhibitors | purified cruzain, Z-FR-AMC fluorescence, 0.01% Triton | 200,000 tested, 0.43% active | AID 1478, 2009; active = well fitted curve in the direction sought with a large enough effect; inconclusive = small, poorly fitted or top-dose-only effect, or another doubt; inactive = no such curve, though single readings can be large; an effect the other way counts as inactive or inconclusive;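 also: plate controls were neutral wells for no effect and buffer without enzyme for full effect; nearly all actives have a fitted effect of over 40% in size; top concentration of the series not given in the record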
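Z-FR-AMC hydrolysis (2 uM substrate) by cruzain (1.5 nM) monitored kinetically at ex 360/em 450 nm after 15 min room-temperature compound exposure; 0.01% Triton X-100, pH 5.5, 5 mM DTT.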
2A StopGo: High Throughput Screening for Foot and Mouth Disease Virus Antivirals; Potency, µM (titrated, usually from 57.9 µM), without a hit: top-dose signal change, negative = less light; human cells with a luciferase reporter of 2A StopGo recoding; control for the full effect not named in the record; 410,000 tested, 1.2% active; active = well fitted falling curve with a large enough effect; inconclusive = small, poorly fitted or top-dose-only effect; inactive = no such curve, though single readings can be large or run the other way; tested in HEK293T cells; also: % is scaled to controls: 0 for no effect and ±100 for the full control effect; nearly all actives have a fitted effect of over 45% in size; luciferase light after 4 h
NS1 function inh: qHTS Assay for Inhibitors of Influenza NS1 Protein Function | S. cerevisiae slowed by influenza A NS1, growth recovery by OD600 | Potency, µM (doses to about 46.1 µM), without a hit: top-dose activity, positive = more growth | 270,000 tested, 0.4% active; also: actives are rising curves; nearly all actives have a fitted effect of over 50% in size
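A cell-based growth assay was used: compounds that relieve NS1-induced slow growth of budding yeast raise OD600. Assay medium was yeast nitrogen base with ammonium sulphate and -URA supplement, pH 6.0, with 2% galactose.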
Numbers without * were called inactive; ? = inconclusive; · = no result given; & = joins results of further samples; [ ] = dose if it differs, or a comment. Unless noted, calls follow the shape of the dose curve; as a rule, active means well fitted rising curve with a large enough effect; inconclusive means small, poorly fitted or top-dose-only effect; inactive means no such curve, though single readings can be large or run the other way. Potency is read from the fitted curve at half-maximal effect.

no.	Structure	Lassa entry inh	MARV entry inh	SARS PLP yeast	Cruzain inh noDet	RE007 growth inh	Cruzain Triton	2A StopGo	NS1 function inh
1	CCOc1cccc2cc(C(=O)NCc3ccc(Cl)cc3)c(=N)oc12	?	?	9%	·	-21%	·	-13%	18%
2	Nc1ccnn1Cc1cccnc1	14%	-3%	1%	-3%	-12%	0.4%	-2%	-2%
3	O=C(NC(=S)NC1CCCCC1)c1ccccc1	?	21%	18%	·	-27%	·	86%[activator]	-23%
4	O=C(Nc1cc(-c2nc3ccccc3o2)ccc1Cl)c1cc([N+](=O)[O-])ccc1N1CCOCC1	?	7%[46.1 µM]	·	-3%	·	-0.6%	12%	·
5	O=C(O)CCCCCn1c(O)c(C=C2N=c3ccccc3=N2)sc1=S	0%	?	-19%	0%	12%	-5.0%	-6%	7%
6	CCOc1ccc(C(=O)CN2CCN(S(=O)(=O)c3ccc(Cl)cc3)CC2)cc1	-7%	-12%[46.1 µM]	-13%	-2%	-2%	0.8%	-29%	-93%
7	COc1ccc(Br)cc1CNC(=O)C1CCCN(S(=O)(=O)N2CC(C)CC(C)C2)C1 (centres undefined)	·	·	6%	·	-5%	·	-4%	13%
8	O=C(/C=C/c1cccs1)N1CCC2(CC1)Oc1ccc(Cl)cc1C(=O)C21CC(c2ccccc2)=NO1 (centres undefined)	·	·	0%	·	1%	·	-17%	7%
9	CC(=O)N1CCN(c2ccc([N+](=O)[O-])c(NCC3CCCO3)c2)CC1 (centres undefined)	14%	19%	-3%	-12%	8%	-9.6%	-24%	12%
10	Cc1ccccc1N/N=C1\CCCNC1=O	23%	2%	-3%	-17%	34%	-12%	-1%	-51%
11	CCC(=O)c1c[nH]c(C(=O)NCCc2ccccn2)c1	0%	-26%[46.1 µM]	5%	0%	14%	0.2%	31%[activator]	15%
12	COc1cc(-c2nnc(COc3ccc4cc(Br)ccc4c3)o2)cc(OC)c1OC	-9%	?	-3%	29%	10%[3.69 µM]	7.5%	10%	-38%
13	C=CCc1cc(C)cc(C)c1OCCn1cncn1	7%	-20%[46.1 µM]	22%	8%	-15%	-0.9%	-24%	-31%
14	COc1ccc(CNC(=S)Nc2ccccc2Cl)cc1	·	·	4%	·	2%	·	3%	9%
15	O=[N+]([O-])c1ccc(-c2cc(-c3ccncc3)nc3ccc4ccccc4c23)cc1	2%	1%	3%	4%	-22%	0.6%	·	8%
16	COc1ccccc1/C=C/C(=O)NCC(=O)N/N=C(/C)c1ccco1	?	-12%[46.1 µM]	1%	·	-14%	·	10%	2%
17	COc1ccccc1C(=O)N(Cc1cccs1)C1CCS(=O)(=O)C1 (centres undefined)	4%	8%	11%	3%	-3%	0.3%	2%	?
18	COc1cc(/C=C/C(=O)OCC(=O)N2CCN(S(=O)(=O)c3ccc(C)cc3C)CC2)cc(Cl)c1OC	-18%	?	-3%	·	-3%	·	-18%	·
19	CCCCC(NC(=O)COc1cc2c(c3oc(=O)cc(C)c13)CCC(C)(C)O2)C(=O)O (centres undefined)	2%	-5%[46.1 µM]	-1%	·	3%	·	-6%	15%
20	O=C1C(Oc2ccccc2)C(c2ccc3c(c2)OCO3)N1CCc1ccc(F)cc1 (centres undefined)	1%	10%	4%	3%	5%	-4.4%	11%	4%
21	Cc1ccc(CSc2nc(N)cc(N)n2)cc1	2%	11%	-2%	·	1%	·	36%[activator]	-27%
22	O=C(OCCOCCN=C1NS(=O)(=O)c2ccccc21)c1ccncc1	22%	0%	-1%	-1%	8%	3.2%	3%	-5%
23	O=C(NCc1ccccn1)Nc1ccc(Cl)c(Cl)c1	15%	6%[46.1 µM]	-8%	-6%	-4%	-9.4%	42%[activator]	-93%
24	c1ccc2c3c([nH]c2c1)C(C1CCCCC1)N(Cc1ncc[nH]1)CC3 (centres undefined)	-18%[46.1 µM]	-21%[46.1 µM]	1%	·	-9%	·	-14%	2%
25	Cc1ccccc1OCc1nc2c3cnn(-c4ccccc4F)c3ncn2n1	5%[46.1 µM]	?	·	-8%	·	-0.8%	34%[activator]	·
26	Cc1ccc(C)c(N2CCN(S(=O)(=O)c3ccc4oc(=O)c5ncn(C)c5c4c3)CC2)c1	12%[46.1 µM]	0%[46.1 µM]	·	8%	·	0.9%	-5%	·
27	COC(=O)c1ccc2nc(NC(=O)COC(=O)CSc3nc(C)cc(C)n3)sc2c1	11%	0%	-1%	20%	-4%	-6.4%	15%	-8%
28	O=c1c2[nH]c3ccccc3c2ncn1CCN1CCCCC1	7%	-23%	3%	-7%	1%	0.8%	20%	6%
29	ClCCNc1nc2ccc(Cl)cc2[nH]1	?	9%	-30%	-17%	8%	-10%	55%[activator]	-6%
30	CCc1nnc(NC(=O)CCC(=O)N2CCCC2)s1	0%	20%	1%	18%	21%	2.1%	12%	1%
31	COc1ccc(/C=C(/NC(=O)c2cccs2)C(=O)N2CCOCC2)cc1OC	-11%	?	-19%	-3%	-9%	2.4%	-16%	2%
32	Cc1c(/C=N\NC(=O)c2ccc([N+](=O)[O-])cc2)cnn1C	-1%	2%	1%	-4%	13%	-5.0%	7%	5%
33	Cc1nc2ccc(NC(=S)N3CCOCC3)cc2nc1C	15%	9%&9%	-1%	·	0%	·	-7%	1%
34	O=C(CSc1nc2ccccc2c(=O)n1-c1ccc(Cl)cc1)N/N=C/C=C/c1ccccc1[N+](=O)[O-]	-17%	?	10%	10µM*	-2%	-2.9%	13%	?
35	COc1ccc(Cn2c(SCC(=O)NCc3ccc(Cl)cc3)nc3ccsc3c2=O)cc1	10%[46.1 µM]	·	·	-1%	·	-1.7%	-14%	·
36	COC(=O)c1[nH]c2cccc(OC)c2c1NC(=O)CCN1CCN(c2ccccc2OC)CC1	4%	-28%	5%	0%	9%	-2.6%	-25%	-3%

(more compounds)
Under each structure: Lassa entry inh, MARV entry inh, SARS PLP yeast, Cruzain inh noDet, RE007 growth inh, Cruzain Triton, 2A StopGo, NS1 function inh
37) Cc1ccc(NC(=O)COC(=O)c2ccc([N+](=O)[O-])o2)cc1S(=O)(=O)N1CCCCCC1
→ 14%[46.1 µM], ?, -2%, ·, -15%, ·, -26%, ·
38) S=C(N/N=C/c1ccc(Cl)c(Cl)c1)Nc1ccccc1Cl
→ ?, ?, 0%, ·, 17%, ·, 5%, ·
39) Cc1ccn2cc(CCNC(=O)CC3CCCCC3)nc2c1
→ -9%[46.1 µM], -3%[46.1 µM], 1%, ·, ?, ·, -7%, ·
40) CCOc1ccc(NC(=O)CN(C)C(=O)Cn2cnc3c2c(=O)n(C)c(=O)n3C)cc1OCC
→ 12%, 0%, -3%, ·, -20%, ·, -21%, ·
41) CCc1noc(C)c1C(=O)Nc1ccc(Cl)c(S(=O)(=O)N2CCCCC2)c1
→ -17%, ?, 1%, ·, -1%, ·, 22µM*, ·
42) CCOC(=O)COc1nc(-c2ccc(Cl)cc2)cc(-c2ccco2)c1C#N
→ 21%, -15%[14.2 µM], 2%, ·, -8%, ·, -15%, 3%
43) CC1=C(C(=O)Nc2ccccc2)C(c2cccn2C)n2ncnc2N1 (centres undefined)
→ -6%[46.1 µM], ·, ·, -8%, ·, -1.3%, ?, ·
44) Cc1ccc(NC(=O)CN(C)S(=O)(=O)c2ccc3c(c2)n(C)c(=O)c(=O)n3C)cc1
→ ·, ·, 0%, ·, -1%, ·, -8%, 3%
45) COc1ccc(CCN2C(=O)c3ccccc3C2(O)c2ncc[nH]2)cc1OC (centres undefined)
→ 4%, -1%, 3%, 0%, -15%, -2.0%, -13%, 1%
46) Cc1ccc(N=C2C(=O)Nc3ccccc32)c(C)c1
→ 1%[46.1 µM], 7%[46.1 µM], -2%, ·, -10%, ·, -2%, 0%
47) C=CCSc1nc(C)cc(/C=C\c2ccccc2)c1C#N
→ 6%, -6%, -1%, 8%, 2%, 16%, 6%, 4%
48) CSc1ncccc1C(=O)NC(C)C1CC2CCC1C2 (centres undefined)
→ 1%, -2%[46.1 µM], -1%, ·, 5%, ·, -12%, -5%
49) Cc1ccc(C2=NN(CC(=O)O)C(=O)CC2)cc1
→ -1%[46.1 µM], -1%[46.1 µM], 0%, ·, -12%, ·, 1%, 1%

In the list so far, these contain a nitro group on carbon:
Under each structure: Lassa entry inh, MARV entry inh, SARS PLP yeast, Cruzain inh noDet, RE007 growth inh, Cruzain Triton, 2A StopGo, NS1 function inh
4) O=C(Nc1cc(-c2nc3ccccc3o2)ccc1Cl)c1cc([N+](=O)[O-])ccc1N1CCOCC1
→ ?, 7%[46.1 µM], ·, -3%, ·, -0.6%, 12%, ·
9) CC(=O)N1CCN(c2ccc([N+](=O)[O-])c(NCC3CCCO3)c2)CC1 (centres undefined)
→ 14%, 19%, -3%, -12%, 8%, -9.6%, -24%, 12%
15) O=[N+]([O-])c1ccc(-c2cc(-c3ccncc3)nc3ccc4ccccc4c23)cc1
→ 2%, 1%, 3%, 4%, -22%, 0.6%, ·, 8%
32) Cc1c(/C=N\NC(=O)c2ccc([N+](=O)[O-])cc2)cnn1C
→ -1%, 2%, 1%, -4%, 13%, -5.0%, 7%, 5%
34) O=C(CSc1nc2ccccc2c(=O)n1-c1ccc(Cl)cc1)N/N=C/C=C/c1ccccc1[N+](=O)[O-]
→ -17%, ?, 10%, 10µM*, -2%, -2.9%, 13%, ?
37) Cc1ccc(NC(=O)COC(=O)c2ccc([N+](=O)[O-])o2)cc1S(=O)(=O)N1CCCCCC1
→ 14%[46.1 µM], ?, -2%, ·, -15%, ·, -26%, ·

An unsorted share of the library; about 4.5% have a hit in one of these screens.
